Source: PubChem
TRPML1 ag: qHTS for Agonists of the Human Mucolipin Transient Receptor Potential 1 (TRPML1) | TRPML1-expressing cells, Ca2+ dye fluorescence, FDSS; host cell line not named in the record; reference of the full effect not given here | activation, % (no concentration beside the values) | 410,000 tested, 0.12% active; in the data active = activation above about 50%; inconclusive = about 30% to 50%; inactive = below about 30%; also: 0% is about no effect; the text of the record puts the active cut at 80%
Target sequence (Q9GZU1 whole entry, looked up): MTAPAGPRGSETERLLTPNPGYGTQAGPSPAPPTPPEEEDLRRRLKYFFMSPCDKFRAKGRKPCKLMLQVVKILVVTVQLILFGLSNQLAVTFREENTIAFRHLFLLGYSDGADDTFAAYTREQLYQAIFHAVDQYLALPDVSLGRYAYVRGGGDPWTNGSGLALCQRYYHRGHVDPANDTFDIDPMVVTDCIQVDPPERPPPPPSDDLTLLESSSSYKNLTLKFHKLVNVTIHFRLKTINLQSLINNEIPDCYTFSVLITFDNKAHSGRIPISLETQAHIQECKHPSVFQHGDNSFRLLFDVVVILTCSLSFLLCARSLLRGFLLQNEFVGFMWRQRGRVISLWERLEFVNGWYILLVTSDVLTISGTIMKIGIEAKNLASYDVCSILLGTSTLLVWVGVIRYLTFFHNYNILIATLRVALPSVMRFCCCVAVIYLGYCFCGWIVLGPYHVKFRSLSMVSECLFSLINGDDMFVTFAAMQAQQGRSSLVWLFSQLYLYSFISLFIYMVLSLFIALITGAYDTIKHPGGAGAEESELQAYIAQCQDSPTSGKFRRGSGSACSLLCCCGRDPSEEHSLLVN
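Tet-induced TRPML1-DL cells, 1,500 per well, cultured overnight, were loaded with a no-wash Ca2+ dye for 45–90 min. Calcium fluorescence was recorded on the FDSS for 110 s after compound addition, before the EC80 agonist (4 uM 54-4) was added.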
D2 agonist: Beta-Arrestin HTS for Positive Allosteric Modulators of the Human D2 Dopamine Receptor: Agonists; AID 624465, 2012; DiscoveRx PathHunter D2 beta-arrestin, luminescence, 90 min; 100% = 57 uM dopamine signal; activation, % (concentration not given with the values); D(2) dopamine receptor (Homo sapiens), P14416; 360,000 tested, 0.084% active; in the data active = activation above about 40%; inconclusive = about 15% to 40%; inactive = below about 15%; also: compound concentration not given in the record; the text of the record calls up to 30% inactive
Target sequence (P14416 whole entry, looked up): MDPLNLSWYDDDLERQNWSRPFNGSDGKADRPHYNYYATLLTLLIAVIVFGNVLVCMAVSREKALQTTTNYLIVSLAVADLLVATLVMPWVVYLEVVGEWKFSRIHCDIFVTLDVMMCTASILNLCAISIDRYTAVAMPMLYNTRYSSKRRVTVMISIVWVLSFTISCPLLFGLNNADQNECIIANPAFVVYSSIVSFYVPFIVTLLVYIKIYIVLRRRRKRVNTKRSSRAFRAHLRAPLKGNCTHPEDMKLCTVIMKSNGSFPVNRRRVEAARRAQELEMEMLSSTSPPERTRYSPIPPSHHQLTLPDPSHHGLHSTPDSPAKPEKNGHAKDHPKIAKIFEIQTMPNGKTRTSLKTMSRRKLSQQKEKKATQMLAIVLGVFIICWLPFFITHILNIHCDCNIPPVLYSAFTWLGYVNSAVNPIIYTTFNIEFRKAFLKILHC
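Agonist mode: compounds alone added to overnight-plated D2 PathHunter cells for 90 min at 37 C, with 57 uM final dopamine (EC100) defining full response. Beta-arrestin recruitment detected by chemiluminescent reagent, read after 1 h at ambient temperature.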
CtBP-E1A blk: qHTS Assay for Inhibitors of the CtBP/E1A Interaction; AlphaScreen GST-E1A/His-CtBP binding, 1536-well; stronger effect = lower value; control for the full effect not named in the record; 340,000 tested, 0.49% active; CtBP / adenovirus E1A interaction (AlphaScreen); activity change, % (test concentration not listed); AID 651724, 2012; in the data active means activity change below about -65%; inconclusive means about -30% to -65%; inactive means above about -30%; also: % is scaled to controls: 0 for no effect and ±100 for the full control effect; compound concentration not given in the record
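GST-E1A and His-tagged CtBP (125 nM each as 5X stock) were preincubated with pin-transferred compound for 2 h at 37 °C in the dark, then glutathione donor and nickel acceptor beads were added for 1 h before AlphaScreen reading.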
Six1-Eya2 inh: qHTS Assay for Inhibitors of the Six1/Eya2 Interaction; 360,000 tested, 0.56% active; AID 651725, 2012; activity change, % (concentration not given with the values); AlphaScreen GST-Six1/His-Eya2 binding, biochemical; stronger effect = lower value; control for the full effect not named in the record; Homeobox protein SIX1 (Homo sapiens) + Protein phosphatase EYA2 (Homo sapiens), …; in the data active = activity change below about -65%; inconclusive = about -30% to -65%; inactive = above about -30%; also: % is scaled to controls: 0 for no effect and ±100 for the full control effect
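AlphaScreen luminescence read after one hour at 37 °C in darkness. Pin-transferred compounds met GST-Six1 and His-Eya2 protein (5X stock 250 nM/500 nM) plus glutathione donor and Ni-chelate acceptor beads (5X, 50 ug/mL).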
TRPML1 blocker: qHTS for Inhibitors of the Human Mucolipin Transient Receptor Potential 1 (TRPML1); Mucolipin-1 (Homo sapiens), Q9GZU1; TRPML1-inducible cells, Ca2+ dye fluorescence, FDSS; stronger effect = lower value; inhibition of EC80 agonist-evoked calcium signal; activity change, negative = inhibition, % (no concentration beside the values); 390,000 tested, 0.02% active; AID 624415, 2012; in the data active means activity change below about -50%; inconclusive means about -30% to -50%; inactive means above about -30%;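 also: stimulus is agonist 54-4 at its EC80 concentration; % is scaled to controls: 0 for no effect and ±100 for the full control effect; compound concentration not given in the record; the text of the record puts the active cut at -80%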
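Tet-induced TRPML1-DL cells loaded with Ca8 no-wash calcium dye were read kinetically on FDSS. Compound addition was followed by EC80 agonist 54-4 (4 uM final); inhibition was read over 110 s.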
PINK1 expr mod: A Quantitative High throughput Screen to Identify Chemical Modulators of PINK1 Expression. PINK1 immunofluorescence, high-content cytometry, 24 h. Potency, µM (highest dose often 76.6 µM), inactives show at the top dose activation (PINK1 increase), hits mostly activators. 410,000 tested, 0.2% active; active = well fitted activation curve with a large enough effect; inconclusive = small, poorly fitted or top-dose-only effect; inactive = flat fitted curve, though single readings scatter; cell line not stated here;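 also: potency is read from the fitted curve at half-maximal effect; % of control where 0% means no effect; nearly all actives have a fitted effect of over 65% in size; a mitochondrial uncoupler was the plate control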
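Measures PINK1 amount and localization on or inside mitochondria by immunofluorescence. Stable cells get compounds at 5 concentrations for 24 hours before fixation and staining; CCCP controls included.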
The depositor's hits bear a star; ? = inconclusive; . = no result given; [ ] = another dose, or the depositor's remark.

Fields: D2 agonist, TRPML1 blocker, TRPML1 ag, CtBP-E1A blk, PINK1 expr mod, Six1-Eya2 inh
Cn1c(=O)n(C)c2cc(CNC(=O)[C@H]3O[C@@H](n4cnc5c(N)ncnc54)[C@H](O)[C@@H]3O)ccc21
 : -2.9, -1, 0.5, 6, -0.6%, 6
Cc1ccc(C)c(NC(=S)N(Cc2ccco2)C(C)c2cccs2)c1 (configuration not stated)
 : -4.4, 24, -0.2, 2, 1.0%, 4
COc1ccc(CCNC(=O)Cc2cc(OC)c(OC)cc2[N+](=O)[O-])cc1OC
 : -2.9, 24, 5.8, 3, 3.0%, 0
Cc1c(CC(=O)NCC(C)C)c(=O)oc2cc3c(cc12)CCC(C)(C)O3
 : -1.8, -6, 0.6, 6, 0.9%, 2
Cc1ccc(NC2CCCN(C(=O)CN3C(=O)c4ccccc4C3=O)C2)cc1C (configuration not stated)
 : 0.7, -8, 0.2, 0, 0.9%, -12
O=C(CN1C(=O)C2C3CCC(C3)C2C1=O)N1CCN(Cc2ccccc2)CC1 (configuration not stated)
 : 0.0, 14, -0.4, -2, 0.3%, 9
CCCc1nc2ccc([N+](=O)[O-])cc2[nH]1
 : -6.2, 1, -0.5, 0, 4.3%, 5
COc1ccc(CCC(C)NCc2ccc(C(F)(F)F)cc2)cc1 (configuration not stated)
 : -11, 22, -0.6, ., ?, -4
CCCCN(CC)CCCNC(=O)C1CCN(c2nc3ccc(CC)cc3s2)CC1
 : ., -7, -0.1, ., -0.9%, .
C[C@H](NC(=O)[C@@H]1CSC2c3ccccc3C(=O)N21)C(=O)NCCc1ccc(F)cc1 (some centres not stated)
 : -0.3, -5, 0.7, -17, 0.2%, 4
NS(=O)(=O)c1ccc(CNC(=O)C23CC4CC(CC(C4)C2)C3)cc1
 : 1.2, 50, -0.6, -3, -1.0%, 1
O=C(O)c1cc([N+](=O)[O-])cc2ccccc12
 : -1.6, -6, -0.2, 5, 0.9%, -1
OC(CNCc1cccnc1)COc1ccc2ccccc2c1 (configuration not stated)
 : 1.9, -22, 0.0, 3, -1.0%, 4
CC(C)(C)[C@H]1C=C(C(=O)N2CCN(Cc3ccccc3)CC2)O[C@@H](OCc2ccc(CO)cc2)C1
 : 3.7, 6, -0.3, -26, 0.0%, -7
Cc1cccc(C)c1NC(=O)C1CCCN1S(=O)(=O)c1ccc2c(c1)n(C)c(=O)c(=O)n2C (configuration not stated)
 : -1.5, -11, 0.2, 6, 2.3%, 0
CC1CCc2c(sc(NC(=O)C3=COCCO3)c2C(N)=O)C1 (configuration not stated)
 : -4.6, -5, -0.2, ., -0.2%, -4
O=C(O)COc1cccc(NC(=O)c2ccccc2)c1
 : 0.4, 2, 0.3, 2, -1.1%[38.3 µM], -3
COc1ccc(-n2nc(C(=O)NCC(=O)NCC3CCCO3)c3ccccc3c2=O)c(OC)c1 (configuration not stated)
 : -2.6, -2, -0.7, 8, 1.1%, 4
O=C(O)c1c2c(nc3ccc(Cl)cc13)CCC2
 : -1.5, 2, 0.1, 4, 0.9%, 1
CCc1ccc(C(=O)N/N=C/c2ccncc2)s1
 : -2.6, 0, 0.6, -7, -0.8%, -1
N#Cc1c[nH]n2c(NC3CCCC3)c(-c3cccc(Cl)c3)nc12
 : ., -6, -0.9, ., 4.1%, .
CC(NS(=O)(=O)c1ccccc1)C(c1cccs1)N1CCOCC1 (configuration not stated)
 : -2.9, -9, 0.0, 10, 2.8%, 5
C/C(=N\NC(=O)c1ccc([N+](=O)[O-])c(C)c1)c1ccccc1Cl
 : -4.2, -4, 1.0, -4, 8.7%, -3
CS(=O)(=O)N(Cc1ccccc1F)c1ccccc1
 : 0.0, -7, 3.8, 4, -2.0%, 5
COc1ccc(C(=O)NCc2cccc(Cl)c2)cc1S(=O)(=O)N1CCOCC1
 : -3.1, -11, -0.6, ., -0.8%, 2
O=C(COC(=O)Cc1ccc(Br)cc1)NC1CCCCCC1
 : 0.9, -12, 1.7, 9, -0.5%, 10
CN(C)c1ccc(C(=O)N2CCNC(=O)C2CC(=O)Nc2ccc(F)cc2)cc1 (configuration not stated)
 : 2.2, 26, 0.0, 27, 0.6%, -2
Cc1ccc(CCNC(=O)C2CCN(S(=O)(=O)c3ccc4c(c3)NC(=O)CO4)CC2)cc1
 : -3.3, -5, -0.6, 0, 0.6%, -8
CCOC(=O)[C@H]1[C@H]2COc3ccc(OC)cc3[C@@H]2N2C(=O)c3cc(OC)ccc3NC(=O)[C@@]12C
 : -3.8, 80, -1.1, -1, 2.2%, -3
CCOCCn1c(CN2CCN(c3ccc(F)cc3)CC2)nc2c1c(=O)n(C)c(=O)n2C
 : -2.3, -9, 0.2, 42, 9.1%[38.3 µM], 16
CCC1(CC)NC(=O)N(CC(=O)OC(C)C(=O)Nc2ccc(S(N)(=O)=O)cc2)C1=O (configuration not stated)
 : -0.2, 6, -0.1, 2, 0.2%, 4
CCc1noc(C)c1C(=O)N(C)CC(=O)Nc1ccc(OC)cc1
 : -2.4, 2, -0.1, 1, 0.3%, -3
CN(Cc1ccc(OC(F)F)cc1)C(=O)/C=C/c1ccc(S(=O)(=O)N2CCOCC2)cc1
 : 9.2, 7, -0.4, 0, -1.4%, -11
Cc1nnc(SCc2cc(=O)[nH]c(=S)[nH]2)s1
 : 4.0, 7, -0.5, -9, 3.4%, -9
COc1ccc(-c2nc3ccccc3c(=O)n2-c2c(C)n(C)n(-c3ccccc3)c2=O)cc1
 : 0.0, 14, 0.7, 6, -0.6%, 11
CC(C)C(NC(=O)c1ccc(F)cc1)C(=O)N1CCOCC1 (configuration not stated)
 : 0.4, -25, 1.3, 4, -0.3%, 4
COc1ccc(CCNC(=O)CCN2N=C(c3ccccc3)CCC2=O)cc1OC
 : ., -11, 1.8, ., -0.7%, .
CC1=CCC2C(=O)N(c3ccc(S(N)(=O)=O)cc3)C(=O)C2C1 (configuration not stated)
 : -1.9, 17, -0.1, 0, -1.6%, 4
COc1cccc(OCC(=O)Nc2ccncc2)c1
 : 9.0, -11, -0.5, 7, 0.3%, -1
COCCNc1nc2nonc2nc1N(C)Cc1cccc2cnccc12
 : -4.5, -15, 0.4, -17, -0.1%, -14
O=C(CNC(=O)Cc1ccccc1)NCC(=O)N1CCCCC1
 : -0.9, 3, 0.4, 4, -0.7%, 0
COc1ccc(OCC(=O)NNc2nc3ccccc3s2)cc1
 : 5.4, 2, 1.4, 8, -0.9%, 4
Cc1ccc2c(c1)/C(=C/c1ccc(F)cc1)C(=O)N2
 : -7.1, 41, 2.9, ., 7.5%, -1
Cc1cc(C)c(C)c(S(=O)(=O)N2CCN(CC(=O)Nc3ccc([N+](=O)[O-])cc3)CC2)c1C
 : -1.9, 8, 1.2, 3, 15%, 1
On1nnc2cc(C(F)(F)F)ccc21
 : -1.9, -6, -0.2, 3, 0.1%, -1
CCOc1ccc(NC(=O)c2oc3ccccc3c2NC(=O)Cc2cccc(C)c2)cc1
 : ., -2, -1.2, ., 0.0%, .
CCOC(=O)CCP(=O)(O)C(O)c1ccccc1 (configuration not stated)
 : 0.2, 7, 1.1, 1, -1.9%, 0
CCOc1cc(NC(=S)NCC2CCCO2)c(OCC)cc1NC(=O)c1ccc(C)cc1 (configuration not stated)
 : -0.8, 2, 0.8, 5, 2.6%, 0
COc1ccc(-c2nc(CN3CCN(c4ncccn4)CC3)c(C)o2)cc1C
 : 4.6, -16, -0.6, -16, 5.2%, -7
CCOC(=O)N1CCN(C(=O)C(=O)NNC(=O)COc2ccc(Cl)cc2)CC1
 : -2.2, -5, -0.5, 1, 5.4%, -1
O=C(CSCc1ccc(Cl)cc1)Nc1nccs1
 : -0.9, -10, 1.1, 6, ., 1
N/C(=N\OC(=O)c1ccccc1F)c1cccc([N+](=O)[O-])c1
 : 66*, 2, -0.4, ., 1.4%, 7
Cc1ccc(OCC(=O)Nc2cccnc2Cl)cc1C
 : -2.0, 11, -0.1, -5, 0.8%, 14
Fc1ccc(CSc2ncnc3c2oc2ccccc23)cc1
 : 3.7, -20, 2.6, -14, 5.7%, 13
COC(=O)c1ccc(OC(=O)CCN2c3ccccc3Sc3ccccc32)cc1
 : -4.5, 2, -1.0, 9, 0.5%, -7
CC[C@]12c3[nH]c4cc(-c5ccco5)ccc4c3CCN1C(=O)[C@@H](CC(=O)NCCCOC)C[C@@H]2C(=O)N1CCN(C(=O)C2CC2)CC1
 : -2.1, -7, -0.1, 0, 4.1%, -1
Cc1c(C=C2C(=O)c3ccccc3C2=O)cc(C#N)n1C
 : -3.2, -2, 1.1, 6, -0.6%, 6
CCOC(=O)Cn1c(=O)n(-c2ccc(Cl)cc2)c2nc(-c3ccc(Cl)cc3)nc(C(N)=O)c21
 : ., -1, 0.0, ., 0.4%, .
CSCCC1C(=O)OC2(C)CC(C)(C)NC(=S)N12 (configuration not stated)
 : -2.0, 45, 0.3, -4, 3.4%, 2
COc1cc(C2c3c(-c4ccccc4O)n[nH]c3C(=O)N2CCO)ccc1OCC(C)C (configuration not stated)
 : ., -7, -0.8, ., -1.7%, .

Fetched one by one from the list above, 5 records:
Fields: D2 agonist, TRPML1 blocker, TRPML1 ag, CtBP-E1A blk, PINK1 expr mod, Six1-Eya2 inh
CCOCCn1c(CN2CCN(c3ccc(F)cc3)CC2)nc2c1c(=O)n(C)c(=O)n2C
 : -2.3, -9, 0.2, 42, 9.1%[38.3 µM], 16
N#Cc1c[nH]n2c(NC3CCCC3)c(-c3cccc(Cl)c3)nc12
 : ., -6, -0.9, ., 4.1%, .
CCC1(CC)NC(=O)N(CC(=O)OC(C)C(=O)Nc2ccc(S(N)(=O)=O)cc2)C1=O (configuration not stated)
 : -0.2, 6, -0.1, 2, 0.2%, 4
On1nnc2cc(C(F)(F)F)ccc21
 : -1.9, -6, -0.2, 3, 0.1%, -1
CC1=CCC2C(=O)N(c3ccc(S(N)(=O)=O)cc3)C(=O)C2C1 (configuration not stated)
 : -1.9, 17, -0.1, 0, -1.6%, 4

Additional compounds follow:
Fields: D2 agonist, TRPML1 blocker, TRPML1 ag, CtBP-E1A blk, PINK1 expr mod, Six1-Eya2 inh
Cc1ccc(N2CC(C(=O)OCC(=O)c3ccc[nH]3)CC2=O)cc1 (configuration not stated)
 : -3.0, -10, 0.1, 3, -1.0%, 1
C[C@@]12C(=O)N(CCc3c[nH]c4ccccc34)CC(=O)N1[C@H]1c3ccccc3OC[C@@H]1[C@@H]2c1ccccc1
 : -2.8, -2, 0.4, -22, -0.9%, -19
CCOC(=O)C1CCN(C(=O)c2ccccc2NC(=O)c2nsc3ccccc23)CC1
 : ., -3, 2.5, ., 0.4%, .
CC(OC(=O)c1nc(Cl)ccc1Cl)C(=O)NCc1ccccc1 (configuration not stated)
 : -1.3, 1, -1.3, 2, 2.8%, 1
CC(=O)c1c(OCC(=O)N(C)C2CCCCC2)ccc2c(C)cc(=O)oc12
 : 0.0, 36, 0.9, -9, -2.7%, 6
